# Compound activity as filed in PubChem BioAssay.
# Mtb hypoxia rep: Mtb hypoxia fluorescent reporter inhibition | M. tuberculosis hypoxia-regulated fluorescent reporter, fluorescence | fluorescence inhibition, % (test concentration not listed) | 0.1% of 300,000 active;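 active = 35 to 45% if threefold the growth effect, above 45% if 1.5-fold the growth effect; inactive = the rest, general growth blockers included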;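 also: wells of about 50 µL received 100 nL stock; 0% = vehicle wells and 100% = reference inhibitor wells; whole bacteria with a GFP reporter of the hypoxia response; strong numbers were not always called active; many hits fall short of the cut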
# ugtP null kill: kills S. aureus RN4220 lacking UgtP; S. aureus RN4220 ugtP deletion, OD600 growth, 16 h; some inactives read as strong as hits; growth inhibition, % (concentration not given with the values); 0.54% of 330,000 active; AID 1259309;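 active = z-score under -3 and OD600 up to 0.15 on both plates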;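 also: plate controls were untreated wells for no effect and antibiotic for full effect; wells of about 80 µL received 100 nL stock; the first replicate is given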
# PrP 5UTR inh: suppresses PrP 5' UTR mRNA reporter expression. cell-based PrP 5' UTR mRNA reporter, plate reader. inhibition, % (test concentration not listed). 0.35% of 340,000 active;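 active = every replicate at 50% or more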;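 also: 0 = median of the neutral control wells; tested in H4 reporter cells; numbers are from one replicate; inactives centre near -14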
# Bead autofluor: compound fluorescence in toxin protease inhibitor counterscreen. fluorescence intensity (no concentration beside the values). 3.1% of 360,000 active. compound autofluorescence counterscreen, microsphere flow cytometry; hits give high values;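 active = at least 3 SD above the mean of all compounds, about 16000 in these data; inconclusive = too few beads counted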;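 also: 100 nL of 1 mM stock went into each well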
# BJeLR viability: BJeLR cell viability loss; BJeLR (HRASV12) viability, CellTiter-Glo ATP luminescence, 48 h; reference of the scale not given here; inhibition, % (test concentration not listed); 0.17% of 300,000 active; AID 1554;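 active = replicate mean above 50%; inconclusive = above 50% but judged a plate artefact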;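 also: 50 nL library stock added to about 25 µL; numbers are from one replicate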
# RN4220 kill: kills Staphylococcus aureus RN4220. S. aureus RN4220 growth, OD600, 16 h. inhibition, % (no concentration beside the values). 0.33% of 330,000 active. AID 1259311;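 active = z-score of -3 or lower and OD600 up to 0.18 on both plates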;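 also: plate controls were untreated cells for no effect and reference antibiotic for full effect; stock transfer was 100 nL into about 80 µL; one replicate is shown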
# Mtb hypoxia rep growth: also measured in Mtb hypoxia rep; calls as there; growth inhibition, %; measured here: M. tuberculosis growth (absorbance);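 0% = vehicle and 100% = reference antibiotic; read after six days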
# * hit, by the source's call; ? = inconclusive; · = not tested or not shown.
SMILES,Mtb hypoxia rep,Mtb hypoxia rep growth,ugtP null kill,PrP 5UTR inh,Bead autofluor,BJeLR viability,RN4220 kill
CC(C)CN1C(=O)c2ccc(NC(=O)c3ccccc3F)cc2C1=O,17,2,5,-36,15872,6,-1.7
S=c1[nH]nc(Cc2noc3ccccc23)n1-c1ccccc1,-3,-6,4,-22,3704,-1,1.9
Cc1ccc(SCC(=O)OCn2nnc3ccccc3c2=O)cc1C,-2,-2,1,-45,10262,3,-4.3
S=C(Nc1cccc(Cl)c1)N1CCOCC1,6,3,2,6,22806*,7,4.8
CN(CCc1ccccc1)C1CCCN(S(=O)(=O)CC(F)(F)F)C1 (stereo unspecified),11,5,10,-19,4033,-1,3.0
O=C1C2C3C=CC(C3)C2C(=O)N1CCN1CCN(S(=O)(=O)c2ccc3ccccc3c2)CC1 (stereo unspecified),·,·,1,-1,4491,3,-4.8
CCCCn1c(SC(C)C(N)=O)nc2cc(C(=O)OC)ccc2c1=O (stereo unspecified),·,·,4,-7,2390,21,-1.6
COCCNC(=O)C(=O)NNC(=O)c1ccccc1OC,18,0,5,-4,3680,3,1.9
CSc1[nH]c(=O)c(C(=O)O)cc1C#N,-3,10,-3,-18,2837,-1,0.0
CCCn1ncc(CN2CCN(Cc3ccsc3)C(CCO)C2)c1C (stereo unspecified),-1,-1,3,-13,4609,-1,6.9
O=C(c1noc2c1CSc1ccccc1-2)N1CCN(c2ccc(Cl)cc2)CC1,4,3,12,-27,5184,4,5.1
COc1cccc(C=NNC(=O)CCn2nnc3ccccc32)c1,4,-8,-13,·,·,·,-4.0
CSCC[C@H](NC(=O)OC(C)(C)C)C(=O)N1CCC(C(=O)NCC(=O)Nc2ccc(C)cc2)CC1,-9,10,-6,-5,3711,-3,2.0
Cn1c(=O)c(C(=O)COc2ccc(C#N)cc2)c(N)n(Cc2ccccc2)c1=O,2,-5,2,-24,3934,-2,6.0
CCN(CCNC(=O)C1CCN(S(C)(=O)=O)CC1)c1ccccc1,16,7,0,-53,6350,6,0.6
Cc1ccc(N2CCN(C(=O)N3CCCC3)CC2)cc1C,14,6,3,4,16586*,3,5.5
C=CCSc1nc(=O)n2cccc(C)c2n1,5,2,2,-2,21125*,5,5.6
FC(F)(F)c1nc(Sc2ncccc2C(F)(F)F)n[nH]1,-2,0,-2,-31,4042,-4,1.7
c1ccc2c(c1)CCCC2C1=NCCN1 (stereo unspecified),10,3,10,-12,5993,-25,6.6
COc1cccc(NC=C2C(=O)OC(C)(C)OC2=O)c1,2,12,-7,-23,5790,1,5.3
CCOCc1nnc(NC(=O)c2cccc(OC)c2)s1,-6,9,-12,-38,3934,1,-5.1
CCOC(=O)N/N=C/c1ccc(OCCSc2ccc(Cl)cc2)c(OC)c1,·,·,·,-3,2624,-8,·
O=C(c1cc(COc2ccc(F)cc2Cl)on1)N1CCCCCCC1,1,1,-7,-30,5922,-3,7.6
CS(=O)(=O)N1CCN(c2ccccc2NC(=O)c2cc(Br)ccc2Cl)CC1,-8,-9,-1,-17,4695,-5,2.8
COc1cc(NC(=O)c2ccc(Cl)cc2)c(OC)cc1NC(=O)CN1CCCCC1,14,14,10,-34,4847,0,9.4
SMILES,Mtb hypoxia rep,Mtb hypoxia rep growth,ugtP null kill,PrP 5UTR inh,Bead autofluor,BJeLR viability,RN4220 kill
CSc1ccccc1NC(=O)C(C)N1C(=O)c2ccccc2S1(=O)=O (stereo unspecified),8,-1,9,-32,?,7,2.6
Cc1ccc(S(=O)(=O)/N=C(\c2ccccc2)N(C)S(=O)(=O)c2ccc(C)cc2)cc1,·,·,·,-18,2931,3,·
COc1ccc(S(=O)(=O)N2CCCCCC2)cc1NC(=O)CC1OC(=O)c2ccccc21 (stereo unspecified),-9,9,-4,-3,?,1,2.4
CC1(C)OC(=O)C(=CNc2cccc(C(=O)O)c2)C(=O)O1,2,1,9,-5,3416,3,2.5
CN1CCN(C(=O)c2ccc(CSc3nc4ccncc4n3Cc3ccc(F)cc3)cc2)CC1,-4,-3,-1,3,5864,-10,-2.2
Cc1c(Cc2ccccc2)c(=O)oc2cc(OCC(=O)N3CCC(C(=O)O)CC3)ccc12,·,·,7,-22,5172,-3,0.8
CN(CC(=O)Nc1c(Cl)cccc1Cl)C(=O)CNC(=O)c1sc2ccccc2c1Cl,-4,2,8,-17,3992,·,2.8
O=C(O)COCC(=O)N1CCN(c2cc(C(F)(F)F)nc3ccccc23)CC1,-1,-5,4,-34,4061,1,2.2
COC(=O)c1cc2sc(Cl)cc2n1CC(=O)N1CCCc2ccccc21,-1,8,-4,1,4625,-1,1.4
CCOc1cc(/C=N/n2cnnc2)ccc1OS(=O)(=O)c1ccc(C)cc1,·,·,·,-10,2684,5,·
CC(C)c1ccc(NC(=O)c2cnn(-c3ccccc3)c2NC(=O)c2ccco2)cc1,·,·,-5,-20,2729,-5,-0.6
O=C(NCCc1nc2ccccc2[nH]1)c1ccc(Cl)c([N+](=O)[O-])c1,·,·,·,9,2453,5,·
Nc1nc(C2CCCCC2)cs1,3,5,8,-16,10729,-9,0.2
CCN(c1ccccc1)S(=O)(=O)c1ccc(Cl)c(NC(=O)CN(C)Cc2cccc(F)c2)c1,2,-3,13,-25,?,·,-4.9
COc1ccc(S(=O)(=O)NCc2ccc3c(c2)OCO3)cc1C(=O)O,5,14,-7,-5,7610,-8,3.9
CC(C)(C)OC(=O)NCCCC[C@H](NC(=O)c1nc[nH]c1C(=O)N1CCc2ccccc2C1)C(=O)OC(C)(C)C,·,·,·,-20,3597,3,·
CCc1ccccc1N=C1SCC(=O)N1C,·,·,4,-10,3963,11,5.2
Cc1ccc(-n2cc(-c3ccc([N+](=O)[O-])cc3)[nH]c2=S)c(C)c1,8,3,21,-13,2836,-7,3.9
COc1ccc(NC(=O)c2cc(-c3ccccn3)nc3ccccc23)cc1S(=O)(=O)N(C)C,7,1,-1,-13,4121,·,4.7
O=C(N/N=C/c1cccc([N+](=O)[O-])c1)c1cc(-c2ccccc2)nc2ccccc12,·,·,·,-3,2065,-9,·
Cc1noc(C)c1C(=O)NC(C)c1ccc(Cl)cc1Cl (stereo unspecified),14,-2,7,-1,4930,14,0.2
CCCN1C(=O)c2ccc(C(=O)Nc3cc(C)on3)cc2C1=O,8,4,0,-9,3351,7,-0.2
Cc1cc2c(c(=O)n1Cc1ccco1)C(c1ccccc1)C(C#N)=C(N)O2 (stereo unspecified),-3,2,17,-4,23367*,-10,0.1
O=C(NN=C/C(Cl)=C/c1ccccc1)c1ccc2c(c1)OCO2,-1,-4,-4,·,·,·,2.7
COc1ccccc1CNC(=O)C[n+]1ccccc1,·,·,2,-16,4673,-3,-0.9
SMILES,Mtb hypoxia rep,Mtb hypoxia rep growth,ugtP null kill,PrP 5UTR inh,Bead autofluor,BJeLR viability,RN4220 kill
COC(=O)Nc1nc(-c2ccc(F)cc2)c(C)s1,-3,-2,3,-7,3172,3,-4.2
CN(CCc1ccccn1)C(=O)Nc1ccc(C(C)(C)C)cc1,-9,-4,-5,-48,6884,-3,0.5
Clc1ccccc1-c1nnc(-c2ccc3c(c2)OCO3)o1,7,0,-9,-68,4306,10,3.6
NC(N)=NCc1cccc(I)c1,-3,3,-5,-3,5993,·,1.5
CC(C)Cn1c(N)c(C=O)c(=O)[nH]c1=O,·,·,·,0,3211,-10,·
O=C(CCCN1C(=O)/C(=C/c2ccccc2Cl)SC1=S)NNC(=O)c1cccnc1,0,4,-4,-21,3200,1,4.2
Cc1ccc(CNC(=O)C(=O)c2cn(CC(=O)N3CCOCC3)c3ccccc23)cc1,2,17,2,-16,5590,5,0.9
COc1ccc(NC(=O)N(C)C[C@H]2Oc3c(NS(=O)(=O)c4cccs4)cccc3C(=O)N([C@@H](C)CO)C[C@@H]2C)cc1,2,10,-8,2,3211,·,-13
CCOC(=O)C1=C(COC(=O)c2ccc(Cl)nc2)NC(=O)NC1C (stereo unspecified),-12,-3,1,7,?,·,-0.1
Cc1ccccc1N1CCN(C(=O)c2ccc(Oc3ccc(C(F)(F)F)cn3)cc2)CC1,-7,3,5,-21,8064,-2,-4.7
O=C(COC(=O)C1CC2CCCC(C1)C2=O)Nc1cccc(F)c1 (stereo unspecified),5,2,3,0,5332,·,1.8
C=CCc1ccc(OCCCCNC2CCCC2)c(OC)c1,6,0,12,-5,2726,2,4.1
O=C(CSc1nnnn1-c1ccc(O)cc1)c1ccc(F)cc1,-4,-1,4,-35,5838,5,4.7
COc1ccc(C(=O)NCC(=O)NCC(c2ccco2)N(C)C)cc1OC (stereo unspecified),-2,18,0,-9,2670,13,1.9
O=C(Nc1ccc(N2CCCC2)cc1)c1ccccc1F,11,13,-3,-84,4475,10,3.8
COc1ccc(C=C2NC(=S)NC2=O)cc1,19,8,1,-10,4068,·,-2.7
CCOC(=S)NC(=NS(=O)(=O)c1ccc(C)cc1)c1ccccc1,6,5,8,·,·,·,1.3
CCC1CCCCN1S(=O)(=O)c1ccc(NC(=O)C2CCN(C(=O)c3ccco3)CC2)cc1 (stereo unspecified),-5,16,-4,-23,5498,-8,1.5
Cc1cccn2cc(-c3cccc(S(=O)(=O)N4CC(C)OC(C)C4)c3)nc12 (stereo unspecified),0,-7,-12,4,4180,4,-7.0
CCOC(=O)c1c(C)sc(Sc2ccc(Cl)cc2[N+](=O)[O-])c1OC,·,·,16,-15,2463,-1,5.2
COc1ccc(-c2cc(=O)oc3cc4occ(C)c4cc23)cc1,7,13,-9,-29,22808*,-6,6.4
CN(CC(=O)NCC(c1ccccc1)N1CCCC1)S(=O)(=O)c1ccc(Cl)cc1 (stereo unspecified),9,10,5,-40,5372,·,2.3
CSc1ncccc1C(=O)OCC(=O)c1cccc(Br)c1,-10,-5,0,-16,2245,1,2.8
O=C1OC(c2ccco2)=N/C1=C\c1ccc(-c2cccc(C(F)(F)F)c2)o1,7,7,-6,-15,2530,-19,-3.2
O=C1C2C3C=CC(C3)C2C(=O)N1Nc1ccc([N+](=O)[O-])cc1[N+](=O)[O-] (stereo unspecified),-3,3,5,-17,3920,-4,7.1

# Limited to Mtb hypoxia rep and Mtb hypoxia rep growth, for some of the entries so far:
mol,Mtb hypoxia rep,Mtb hypoxia rep growth
O=C(CCCN1C(=O)/C(=C/c2ccccc2Cl)SC1=S)NNC(=O)c1cccnc1,0,4
CCOC(=O)C1=C(COC(=O)c2ccc(Cl)nc2)NC(=O)NC1C (stereo unspecified),-12,-3
C=CCc1ccc(OCCCCNC2CCCC2)c(OC)c1,6,0
COc1ccc(C=C2NC(=S)NC2=O)cc1,19,8
COc1ccc(-c2cc(=O)oc3cc4occ(C)c4cc23)cc1,7,13

# (listing goes on)
SMILES,Mtb hypoxia rep,Mtb hypoxia rep growth,ugtP null kill,PrP 5UTR inh,Bead autofluor,BJeLR viability,RN4220 kill
CCC(CC)c1nnc(NC(=O)CN2C(=O)c3ccccc3C2=O)s1,-6,6,14,-26,2498,6,6.3
Cc1ccccc1/C=N/NC(=O)Cn1cnc([N+](=O)[O-])n1,·,·,·,3,9379,0,·
Cc1ccc(NC(=O)CSc2nc3ccccc3c(=O)n2CCCC(=O)NCCCN2CCOCC2)cc1,10,2,5,-21,3828,-2,5.2
Cc1cc(NC(=O)c2ccc(Cl)cc2)ccc1NC(=O)c1ccccc1Cl,-5,-2,5,-18,2820,-21,4.1
CN(CCc1nc2ccccc2[nH]1)Cc1nc(CC2CC2)no1,0,8,10,-18,2917,1,1.3
COCCN1C(=O)N[C@@H](CCc2ccccc2)[C@H](C(=O)OC)[C@H]1C,·,·,·,-7,3992,-3,·
O=C(N[C@@H](Cc1ccccc1)C(=O)OCc1ccccc1)c1nc[nH]c1C(=O)N1CCN(c2ccccc2)CC1,·,·,·,-24,3114,-12,·
O=C1C=C(NCc2ccco2)CCC1,3,-3,-1,-13,9340,6,2.5
CCn1nc(C(=O)OCc2cccc(S(=O)(=O)N(C)C)c2)c2ccccc2c1=O,·,·,·,-18,4310,-1,·
COCCNC(=O)C(=O)NCCN1CCOCC1,-3,7,-8,-21,2654,-4,-9.3
O=S(=O)(Nc1cccc(-c2cn3c(n2)SCC3)c1)c1ccccc1,13,3,-19,-9,5473,-9,1.1
O=C(Nc1cccc(S(=O)(=O)N2CCOCC2)c1)C12CC3CC(CC(C3)C1)C2,5,0,-15,3,3990,·,-4.2
CCCc1cc(=O)n2nc(N3CCC(C(=O)NCc4ccc(C)o4)CC3)sc2n1,5,6,3,-6,5539,2,-1.0
